Screens from PubChem BioAssay.
Mtb bLac sens = beta-lactam sensitization of Mtb H37Rv, H37Rv | M. tuberculosis H37Rv growth with meropenem, percent inhibition; hits of this screen are not shown here | inhibition, % at 25 µM | 0.27% of 330,000 active | AID 434955, 2010;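 active means about 74% or more and at least 40 points above the plate without the antibiotic, then above 30% in a dose series; inconclusive means first-round hits that could not be retested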;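 further: growth measured after seven days incubation then overnight dye step; 0% = bacteria only wells and 100% = bacteria with antibiotic; twin plates without the antibiotic show which effects depend on it; some results filed as inactive read as strong as hits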
Starred values were filed as active, the others as inactive; ? = inconclusive. Only part of the results is shown; rates above refer to the full screens.

SMILES	Mtb bLac sens
CC(C(=O)N1CCCCCC1)N(c1ccc(Cl)cc1)S(C)(=O)=O (stereo not drawn)	-4.3
Cc1ccc(NC(=O)CN2C(=O)NC(C)(CC(C)C)C2=O)c(Br)c1 (stereo not drawn)	2.9
CC1CCCCC1NC(=O)COc1cccnc1[N+](=O)[O-] (stereo not drawn)	-12.5
CC1CCC(NC(=O)CN2CCN(S(=O)(=O)c3cccs3)CC2)CC1 (stereo not drawn)	-9.9
C#CCOCCOCCOCCNc1nc(N2CCN(C(=O)CCCCCCCCCCNC(=O)[C@@H](CCC(=O)O)n3cc(CCCCCN)nn3)CC2)nc(N2CCN(C(=O)CCCCCCCCCCNC(=O)[C@@H](CCC(=O)O)n3cc(CCCCCN)nn3)CC2)n1	-7.3
COc1ccc(NC(=O)C(C)N=C2NS(=O)(=O)c3ccccc32)cc1S(N)(=O)=O (stereo not drawn)	-7.5
CN(C(=O)COC(=O)c1cn(C)c2ccccc12)C1CCCCC1	-0.1
COC(=O)C1=C(c2ccc(OC(F)(F)F)cc2)C[C@@H]2CC[C@H]1N2C(=O)NCCNC(C)=O	4.4
COc1ccc(CC(=O)OCC(=O)c2ccc(F)cc2)cc1	-4.9
CCN(c1ccccc1)S(=O)(=O)c1ccc(C(=O)NCCCN2CCOCC2)cc1	-4.1
Cc1noc(C)c1NC(=O)Nc1ccc2c(c1)C(=O)N([C@H](C)CO)C[C@H](C)[C@@H](CN(C)C(=O)Nc1ccccc1)O2	0.3
C[C@]12CC[C@H](O)C[C@H]1CC[C@@H]1C2CC[C@]2(C)[C@@H](C3=CC(=O)OC3)[C@@H](O)C[C@]12O (stereo partly drawn)	-12.4
COC(=O)C1=C(c2ccc(OC)c(OC)c2)C[C@@H]2CC[C@H]1N2C(=O)NC1CCCCC1	1.2
CCc1ccc(S(=O)(=O)Nc2ccc(-c3ccc4nnc(C)n4n3)cc2)s1	-3.5
COc1ccc(C=O)cc1C1=CC(=O)C[C@H](c2ccc(Cl)cc2)C1	19.6

4 entries from above, in CSV form.
canonical_smiles,Mtb bLac sens
Cc1ccc(NC(=O)CN2C(=O)NC(C)(CC(C)C)C2=O)c(Br)c1 (stereo not drawn),2.9
CC1CCCCC1NC(=O)COc1cccnc1[N+](=O)[O-] (stereo not drawn),-12.5
CC1CCC(NC(=O)CN2CCN(S(=O)(=O)c3cccs3)CC2)CC1 (stereo not drawn),-9.9
C#CCOCCOCCOCCNc1nc(N2CCN(C(=O)CCCCCCCCCCNC(=O)[C@@H](CCC(=O)O)n3cc(CCCCCN)nn3)CC2)nc(N2CCN(C(=O)CCCCCCCCCCNC(=O)[C@@H](CCC(=O)O)n3cc(CCCCCN)nn3)CC2)n1,-7.3

(listing goes on)
SMILES	Mtb bLac sens
Cc1noc(C)c1NC(=O)Nc1ccc2c(c1)C(=O)N([C@H](C)CO)C[C@H](C)[C@@H](CN(C)S(=O)(=O)c1c(C)noc1C)O2	-1.2
NS(=O)(=O)c1cccc(NC(=O)COC(=O)CNC(=O)c2ccc(-c3ccccc3)cc2)c1	2.2
O=C(CNC(=O)c1ccccc1F)NCCc1ccccc1F	-5.3
COc1ccc(C(C)(C)C)cc1NC(=O)CCn1[nH]c(=O)ccc1=O	-3.9
NS(=O)(=O)c1ccc(CNC(=O)c2ccc(C(=O)c3ccccc3)cc2)cc1	-4.0
Cc1ccccc1OCC(=O)OCC(=O)NC1CC1	-0.5
CCOC(=O)c1c(C)[nH]c(C(=O)COc2ccc3ccc(=O)oc3c2)c1C	3.5
Cc1c(NC(=O)c2ccc(S(=O)(=O)Nc3ccccc3F)cc2)c(=O)n(-c2ccccc2)n1C	1.3
O=C(C1CCN(S(=O)(=O)c2ccccc2F)CC1)N1CCN(Cc2ccc3c(c2)OCO3)CC1	-5.1
CCOC(=O)c1sc(NC(=O)C2CC(=O)N(c3ccccc3OC)C2)nc1C (stereo not drawn)	-5.9
CCOC(=O)[C@H]1[C@H]2COc3ccc(OC)cc3[C@@H]2N2C(=O)CN(Cc3ccc(C)cc3)C(=O)[C@@]12C	1.1
COc1ccc2nc3n(c(=O)c2c1)-c1cc(Cl)ccc1C(=O)NC3Cc1ccccc1 (stereo not drawn)	3.5
O=c1cc(-c2ccccc2)oc2ccc(Br)cc12	-3.3
COc1ccc(C(=O)C(C)OC(=O)CN2C(=O)c3ccccc3C2=O)cc1 (stereo not drawn)	2.0
O=C(COC(=O)c1ccccn1)NCc1ccc(Cl)cc1Cl	2.7
O=C(/C=C/c1ccccc1Cl)OCC(=O)c1ccc[nH]1	0.9
CC1CCN(c2ccc3c(c2)S(=O)(=O)c2cccc(C(=O)NC4CC4)c2C3=O)CC1	-11.4
CN1CCN(c2ccc(NC(=O)c3cc(S(N)(=O)=O)ccc3N3CCOCC3)cc2)CC1	5.3
O=C(CSc1nnnn1-c1ccccc1)NC(=O)Cc1ccccc1	-1.8
CN(CC(=O)NNC(=O)CNC(=O)c1ccccc1F)S(=O)(=O)c1ccc(Cl)cc1	-1.1
COc1cc(OC)cc(-c2c(-c3cccs3)c3cc(-c4ccc(OCc5ccccc5)cc4)ccc3n2C)c1	1.4
CNS(=O)(=O)c1cccc(C(=O)OCC(=O)c2cc(C)n(CC3CCCO3)c2C)c1 (stereo not drawn)	0.8
COc1cc(OC)cc(-c2c(-c3cccs3)c3cc(-c4ccn[nH]4)ccc3n2C)c1	92.8
CCCn1c(=O)c2[nH]c(-c3ccc(OCC(=O)Nc4ccc(C#N)cc4)cc3)nc2n(CCC)c1=O	-3.9
O=C(NC1CCCC1)c1cccc2c1C(=O)c1ccc(/C=C/c3ccccc3)cc1S2(=O)=O	42.0
O=C(COc1ccc(-c2nnco2)cc1)N1CCOCC1	-1.6
CCCOc1ccc(NC(=O)CC2C(=O)OCC3CCCCN32)cc1 (stereo not drawn)	-5.1
Cn1cc(CN2CCCC(CNS(=O)(=O)c3cccc4cccnc34)C2)cn1 (stereo not drawn)	?
O=C(Cc1ccccc1[N+](=O)[O-])NNC(=O)c1ccncc1	-2.5
CC(CCc1ccccc1)NC(=O)COC(=O)c1cccnc1Cl (stereo not drawn)	-1.9
O=C(COC(=O)CCC1CCCC1)Nc1ccc(F)cc1	0.1
CC(C)(O)C(=O)Nc1ccc([N+](=O)[O-])c(C(F)(F)F)c1	96.9
O=C(COC(=O)c1cc(S(=O)(=O)N2CCOCC2)ccc1F)Nc1ccc(Cl)cn1	-6.2
O=C(COC(=O)/C=C/c1ccc(F)cc1)NCc1cccs1	0.6
O=C(Nc1ccc(Cl)c(S(=O)(=O)N2CCOCC2)c1)C1CCCC1	1.5
CCCCn1c(SCC(=O)NNC(=O)c2ccccc2)n[nH]c1=O	-8.3
COc1ccccc1NC(=O)COC(=O)/C=C/c1ccc(OC)c(OC)c1	45.0
Cc1cc(C)c(S(=O)(=O)N2CCN(C(=O)C3CCCO3)CC2)c(C)c1 (stereo not drawn)	3.1
COc1ccc(-c2cc(C(=O)N3CCCC(C(F)(F)F)C3)c3ccccc3n2)cc1 (stereo not drawn)	4.8
COc1ccccc1C(C)NC(=O)CN(C)CC(=O)Nc1c(C)cccc1C (stereo not drawn)	4.2
COc1ccccc1N1CCN(C(=O)c2cccc(C(=O)N3CCN(c4ccccc4OC)CC3)c2)CC1	-9.8
C#CCOCCOCCOCCNc1nc(N2CCN(C(=O)[C@H](CCCN=C(N)N)n3cc(C(N)[C@@H](C)CC)nn3)CC2)nc(N2CCN(C(=O)[C@H](CCC(=O)O)n3cc([C@@H](N)CC(N)=O)nn3)CC2)n1 (stereo partly drawn)	-2.1
Cc1cccc(C)c1OCC(=O)OCC(=O)Nc1ccc(Cl)cn1	-4.7
CCOC(=O)c1c(C)[nH]c(C(=O)COC(=O)c2cnccn2)c1C	2.1
Cc1cccc(COc2ccccc2C(=O)N(C)CC(=O)Nc2cccc(F)c2)c1	0.0
COc1ccc(-c2nc(N)nc(N)n2)c(O)c1	-2.8
Cc1ccc(NS(=O)(=O)c2ccc(C(=O)NCCCN3CCCC3=O)cc2)cc1	2.1
Cc1noc(C)c1CC(=O)Nc1ccc2c(c1)OCO2	3.4
Cc1noc(C)c1S(=O)(=O)N(C)C[C@H]1Oc2ccc(NC(=O)NC(C)C)cc2C(=O)N([C@H](C)CO)C[C@@H]1C	-1.4
CC(=NNC(=O)c1cc(C)nc2ccccc12)c1ccc(N2CCOCC2)cc1	-6.5
NS(=O)(=O)c1ccc(CCNC(=O)COC(=O)c2nc(Cl)ccc2Cl)cc1	0.8
CC(C)(C)C(=O)Nc1ccc(C(=O)COC(=O)c2ccccn2)cc1	1.4
O=C(CSc1nccn(-c2cccc(F)c2)c1=O)Nc1ccc(Cl)cc1F	-5.3
Cc1ccc2nc(SCC(=O)NCCCN3CCCC3=O)[nH]c2c1	-4.0
Cc1ccccc1-c1nc2cc(NC(=O)C3CC3)ccc2o1	24.1
O=C(COc1ccccc1)Nc1c(Cl)ccc2nsnc12	-24.3
C#CCOCCOCCOCCNc1nc(N2CCN(C(=O)CCCCCCCCCCNC(=O)Cn3cc(C[C@@H](C)O)nn3)CC2)nc(N2CCN(C(=O)CCCCCCCCCCNC(=O)[C@H](CCCCN)n3cc(C[C@@H](C)CC)nn3)CC2)n1	98.6
COc1cccc(CN(C)C(=O)CN2C(=O)NC3(CCCc4ccccc43)C2=O)c1 (stereo not drawn)	-2.7
COC(=O)[C@]1(C)CCC[C@@]2(C)C3CC[C@@]4(C)C[C@]3(CCC21)CC(=O)N4 (stereo partly drawn)	-3.5
O=C(OCc1ccc(Br)cc1)c1cccnc1	2.2

3 structures from above, sorted by length of the SMILES, descending.
SMILES	Mtb bLac sens
CC(=NNC(=O)c1cc(C)nc2ccccc12)c1ccc(N2CCOCC2)cc1	-6.5
Cc1ccccc1-c1nc2cc(NC(=O)C3CC3)ccc2o1	24.1
O=C(COc1ccccc1)Nc1c(Cl)ccc2nsnc12	-24.3

Next structures follow:
SMILES	Mtb bLac sens
CC(C)C(NC(=O)c1c(F)cccc1F)C(=O)NNC(=O)c1ccccc1 (stereo not drawn)	-1.5
Cc1ccccc1C(=O)N1CCC(C(=O)N2CCN(Cc3ccc4c(c3)OCO4)CC2)CC1	-3.3
CSc1ncc(CN2CCC(C(=O)Nc3cccc(-c4cscn4)c3)CC2)cn1	?
COc1ccc(C(C)=O)cc1COC(=O)[C@H](Cc1ccccc1)NC(=O)c1ccco1	-0.8
C=CC[C@H](CC(=O)NCCO)C(=O)N[C@@H](COC(=O)[C@H](CC=C)CC(=O)OC(C)(C)C)Cc1ccccc1	1.8
Cc1ccc(S(=O)(=O)N2CCN(C(=O)CCCOc3cccc(C)c3)CC2)cc1	-5.8
O=C(/C=C/c1cccc(C(F)(F)F)c1)OCC(=O)N1CCN(c2ccccc2)CC1	53.0
O=C(COc1ccc(Br)cc1Cl)N1CCN(c2ncccn2)CC1	-7.4
C[C@@H]1COC(=O)[C@H](NC(=O)OCC2c3ccccc3-c3ccccc32)C/C=C\C[C@@H](CC(=O)N[C@@H](CO)Cc2ccccc2)C(=O)N1	1.9
C#CCOCCOCCOCCNc1nc(N2CCN(C(=O)CCCCCCCCCCNC(=O)Cn3cc(C[C@@H](C)O)nn3)CC2)nc(N2CCN(C(=O)CCCCCCCCCCNC(=O)[C@@H](CCSC)n3cc(CCO)nn3)CC2)n1	-0.3
O=C(NCc1ccccc1)C1CCN(c2nc(-c3ccccc3)nc3c2CCC3)CC1	?
O=C(Nc1cc(S(=O)(=O)N2CCOCC2)ccc1O)c1ccc(S(=O)(=O)N2CCCCC2)cc1	-1.2
C/C(=N\NC(=O)c1ccco1)c1cc(Cl)sc1Cl	-1.3
O=C(CCCOc1ccc(Br)cc1)NCCc1ccc(OC(F)F)cc1	4.5
CC(C)NC(=O)N(C)C[C@@H]1Oc2c(NC(=O)C3CCOCC3)cccc2C(=O)N([C@@H](C)CO)C[C@H]1C	-4.5

The last 2 compounds of the part before come first, to join the parts:
SMILES	Mtb bLac sens
O=C(CCCOc1ccc(Br)cc1)NCCc1ccc(OC(F)F)cc1	4.5
CC(C)NC(=O)N(C)C[C@@H]1Oc2c(NC(=O)C3CCOCC3)cccc2C(=O)N([C@@H](C)CO)C[C@H]1C	-4.5
CN(C)c1ccccc1-c1csc(N2CCC(C(N)=O)CC2)n1	3.4
CN(C)S(=O)(=O)c1ccc(Cl)c(NC(=O)COC(=O)/C=C/c2ccc3ccccc3n2)c1	0.2
CC1CCC2(CC1)NC(=O)N(CC(=O)N1c3ccccc3CC1C)C2=O (stereo not drawn)	-4.3
Cc1noc(C)c1NC(=O)N(C)C[C@H]1Oc2ccc(NC(=O)NC(C)C)cc2C(=O)N([C@H](C)CO)C[C@H]1C	-5.5
COC(=O)CCCC(=O)OC	-4.5
Cc1noc(C)c1NC(=O)N(C)C[C@H]1Oc2c(NC(=O)Nc3ccc(C(F)(F)F)cc3)cccc2C(=O)N([C@H](C)CO)C[C@@H]1C	5.7
CN(C(=O)CN1CCN(c2cnn(-c3ccccc3)c(=O)c2Cl)CC1)C1CCS(=O)(=O)C1 (stereo not drawn)	-3.6
N#Cc1ccccc1OCC(=O)NNC(=O)CCNC(=O)c1ccccc1	-1.6
CC(C)CCNC(=O)CN(Cc1ccccc1)C(=O)CCC(=O)Nc1ccccn1	-24.5
C[C@H](CO)N1C[C@H](C)[C@@H](CN(C)Cc2ccc(C(=O)O)cc2)Oc2ccc(NC(=O)Cn3cnnn3)cc2C1=O	-5.8
CSc1nc(N)nc2c1ncn2CC(=O)NCCNc1ccc([N+](=O)[O-])cn1	5.9
CN(CC(=O)Nc1c(Cl)cccc1Cl)C(=O)Cc1cccs1	-0.6
O=S(=O)(N=C(NS(=O)(=O)c1ccc(Cl)cc1)c1ccccc1)c1ccc(Cl)cc1	0.7
COc1ccc(NS(=O)(=O)c2cc(NC(=O)c3ccccn3)ccc2OC)cc1Br	0.7
CCc1ccc(NC(=O)C2CCCN(S(=O)(=O)c3cccs3)C2)cc1 (stereo not drawn)	-0.8
O=C(Cc1cccc(NC(=O)C2CCCN(C(=O)CCc3ccccc3)C2)c1)Nc1cccc(C(=O)N2CCCC2)c1 (stereo not drawn)	4.1
COc1ccc(S(=O)(=O)N(CC(=O)NCc2ccco2)c2ccc(C)cc2)cc1OC	-24.1
Cc1nc(NC(=O)COC(=O)CCc2ccccc2)c(Cl)cc1Cl	0.8
Cc1c(C(=O)NC2CCCC2)oc2ccccc12	6.2
